Screening results as filed in PubChem BioAssay.
SENP6 inh = inhibitors of human SENP6 protease; 330,000 compounds, 1.8% hits; AID 2599; inhibition, % at 10 µM; Recombinant SENP6 catalytic domain, aminoluciferin luminescence;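 active = inhibition above about 50% at the single tested dose, limit read from the data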;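 note: plate controls were DMSO wells with enzyme for no effect and DMSO wells lacking enzyme for full effect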
HKDC1 inh = inhibitors of human hexokinase HKDC1; recombinant HKDC1, G6PDH/diaphorase resazurin coupled fluorescence; inhibition, % at 20 µM; 340,000 compounds, 0.16% hits;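 active = inhibition above about 35% when tested at 20 µM, limit read from the data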;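 note: plate controls were DMSO wells with enzyme for no effect and DMSO wells lacking enzyme for full effect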
Target sequence (Q2TB90 whole entry, looked up): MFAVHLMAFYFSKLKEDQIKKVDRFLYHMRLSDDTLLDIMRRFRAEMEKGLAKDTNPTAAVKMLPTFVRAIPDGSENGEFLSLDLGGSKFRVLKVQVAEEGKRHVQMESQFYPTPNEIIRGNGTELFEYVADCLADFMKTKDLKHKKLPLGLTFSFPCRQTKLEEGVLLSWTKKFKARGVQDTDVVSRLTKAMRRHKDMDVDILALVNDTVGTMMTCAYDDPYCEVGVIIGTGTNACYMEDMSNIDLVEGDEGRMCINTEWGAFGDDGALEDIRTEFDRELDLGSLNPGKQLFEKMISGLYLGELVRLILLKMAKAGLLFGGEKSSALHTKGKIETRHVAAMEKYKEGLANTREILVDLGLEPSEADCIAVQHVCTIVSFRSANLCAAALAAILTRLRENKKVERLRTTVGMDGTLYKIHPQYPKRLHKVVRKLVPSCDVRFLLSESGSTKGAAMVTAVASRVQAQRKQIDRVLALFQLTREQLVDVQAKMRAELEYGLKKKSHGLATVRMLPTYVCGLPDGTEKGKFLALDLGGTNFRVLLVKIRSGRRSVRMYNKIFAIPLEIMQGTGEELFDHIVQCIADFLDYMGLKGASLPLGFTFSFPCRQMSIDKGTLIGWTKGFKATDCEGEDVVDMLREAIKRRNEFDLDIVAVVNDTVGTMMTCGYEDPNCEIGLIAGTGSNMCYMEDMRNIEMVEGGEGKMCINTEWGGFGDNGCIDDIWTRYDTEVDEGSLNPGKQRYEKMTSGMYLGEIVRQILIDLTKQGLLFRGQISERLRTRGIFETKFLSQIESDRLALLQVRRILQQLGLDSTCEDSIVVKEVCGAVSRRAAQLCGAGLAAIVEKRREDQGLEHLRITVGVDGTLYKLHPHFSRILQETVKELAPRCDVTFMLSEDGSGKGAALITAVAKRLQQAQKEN
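Assay system: in-house recombinant HK5 (HKDC1) enzyme. Input: HKDC1 at 5 µg/mL. Medium: Tris pH 8.0 buffer with MgCl2, Tween-20, BSA, BME. Dosing: single 20 µM dose. Schedule: 90 min reaction incubation at room temperature, dark. Signal: resazurin-to-resorufin fluorescence via G6PDH and diaphorase coupling, 525/613 nm. Controls: DMSO-enzyme wells negative, buffer-substituted wells positive.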
SENP1 inh = SENP1 (human) catalytic domain inhibition | inhibition, % at 10 µM | 360,000 compounds, 0.21% hits | recombinant SENP1 catalytic domain, CyPet-SUMO1-YPet FRET cleavage | AID 624204 | Q9P0U3;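 active = inhibition at least 30% at 10 µM, raw YFP signal under a set limit, fluorescence ratio 0.5 to 1.5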;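 note: 0% = enzyme with DMSO and 100% = no enzyme wells; some results filed as inactive read as strong as hits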
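System: Recombinant human SENP1 catalytic domain, His6-tagged | Incubation: Enzyme reaction for 50 min at room temperature, dark | Medium: Tris pH 8 with BME, BSA, NP40 and catalase | Also added: 25 nM SUMO1 FRET substrate | Compound: 10 µM single point, 0.5% DMSO | Measured by: FRET fluorescence in CFP and YFP emission channels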
SENP8 inh = blocks the human protease SENP8. inhibition, % at 10 µM. Q96LD8. 330,000 compounds, 1.2% hits. purified SENP8, Z-RLRGG-aminoluciferin cleavage, luminescence; in the data active = inhibition above about 50%
Starred values were filed as active, the others as inactive; . = not tested or not shown; & = joins results of further samples. Only part of the results is shown. The share of hits here may be higher or lower than overall.

Letter code: A = SENP6 inh; B = HKDC1 inh; C = SENP1 inh; D = SENP8 inh
COC(=O)[C@H](C(C)C)N(Cc1ccccc1)S(=O)(=O)CCN1CCCC1
  A: .; B: -6.8; C: 1.7; D: .

Nc1nc(Cl)c(N)c(NCC2(CO)CC(CCc3ccccc3)C2)n1 (stereo unspecified)
  A: .; B: 42.1*; C: -27.5; D: .

O=C(C=Cc1cccs1)c1ccccc1
  A: .; B: 5.0; C: -0.7; D: .

CCN(CC)CC(=O)Nc1c(C)cccc1C
  A: -1.4&-15.9; B: -3.5&-6.4&-2.3; C: 1.0&-1.3&-1.8; D: 0.7&-7.8

COc1cc2cc(C(c3nnnn3C(C)(C)C)N3CCc4ccccc4C3)c(=O)[nH]c2cc1OC (stereo unspecified)
  A: 8.2; B: -4.1; C: -26.3; D: 8.0

Cc1ccc(NC(=O)c2sccc2SCc2cccc(C(F)(F)F)c2)cc1
  A: 10.5; B: 4.4; C: -0.6; D: -4.6

COCc1cc(C)nc(SCC(=O)c2ccc(O)c(O)c2)c1C#N
  A: -21.9; B: 7.8; C: -57.6; D: 2.3

COCCS(=O)(=O)N(Cc1ccccc1)[C@H](C(=O)OC)C(C)C
  A: .; B: -5.2; C: 1.9; D: .

Whole records as entered above. Order of values: SENP6 inh	HKDC1 inh	SENP1 inh	SENP8 inh
`O=C(C=Cc1cccs1)c1ccccc1` is entered as .	5.0	-0.7	.
`Cc1ccc(NC(=O)c2sccc2SCc2cccc(C(F)(F)F)c2)cc1` is entered as 10.5	4.4	-0.6	-4.6

Of the compounds above, these contain four or more nitrogen atoms:
Letter code: A = SENP6 inh; B = HKDC1 inh; C = SENP1 inh; D = SENP8 inh
Nc1nc(Cl)c(N)c(NCC2(CO)CC(CCc3ccccc3)C2)n1 (stereo unspecified)
  A: .; B: 42.1*; C: -27.5; D: .

COc1cc2cc(C(c3nnnn3C(C)(C)C)N3CCc4ccccc4C3)c(=O)[nH]c2cc1OC (stereo unspecified)
  A: 8.2; B: -4.1; C: -26.3; D: 8.0
